# VDR inh: blocks the human vitamin D receptor; P11473; AID 504847; Potency, µM, for the others: max response, negative = inhibition, hits mostly inhibitors; 400,000 compounds, 0.93% hits; VDR-SRC2-3 peptide fluorescence polarization, 2 h; active means well fitted inhibition curve with a large enough effect; inconclusive means small, poorly fitted or top-dose-only effect, or another doubt; inactive means no such curve, though single readings can be large or run the other way; further: series mostly up to about 120 µM
# Target sequence (P11473 whole entry, looked up): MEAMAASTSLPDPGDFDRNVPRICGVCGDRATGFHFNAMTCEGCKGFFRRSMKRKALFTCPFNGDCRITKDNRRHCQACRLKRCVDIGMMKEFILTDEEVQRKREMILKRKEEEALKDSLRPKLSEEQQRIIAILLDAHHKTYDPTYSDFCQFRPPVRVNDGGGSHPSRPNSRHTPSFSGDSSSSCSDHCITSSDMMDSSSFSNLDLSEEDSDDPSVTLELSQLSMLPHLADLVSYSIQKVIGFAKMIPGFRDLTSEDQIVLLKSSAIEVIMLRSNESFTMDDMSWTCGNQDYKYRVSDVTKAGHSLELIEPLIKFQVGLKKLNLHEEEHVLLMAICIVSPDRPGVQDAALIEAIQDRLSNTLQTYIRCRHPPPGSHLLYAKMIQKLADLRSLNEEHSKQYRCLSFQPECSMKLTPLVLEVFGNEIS
#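 VDR–SRC2-3 interaction, FP format. Cmpds 23 nl via pintool, brief spin, 2 h ambient incubation.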
# The depositor's hits bear a star; ? = inconclusive; [ ] = another dose, or the depositor's remark. On the % scale 0 is the no-effect control and ±100 the full control effect; potency means the concentration at half of the fitted maximal effect. Only part of the results is shown (hit frequency here may not be typical).
# The first 3 records (preview)
VDR inh	structure
-8%	COc1ccc(OC)c2sc(NC(=O)c3ccc(Br)s3)nc12
-3%	C=CCNc1sc(C(=O)c2ccc(C)cc2)c(N)c1C#N
4%	CCCCCCCCCCCCCCCC(=O)NC(C)C

# This part in full (from the top)
VDR inh	structure
-8%	COc1ccc(OC)c2sc(NC(=O)c3ccc(Br)s3)nc12
-3%	C=CCNc1sc(C(=O)c2ccc(C)cc2)c(N)c1C#N
4%	CCCCCCCCCCCCCCCC(=O)NC(C)C
-15%	COc1ccc2cc(S(=O)(=O)NCc3cccnc3)ccc2c1
6%	Cc1nnc(SCc2ccccc2)c2cc3sccc3n12
-9%	COc1ccccc1NC(=O)C1=C(C)Nc2nnnn2C1c1ccccn1 (stereo not drawn)
16%	CCn1nc(C(=O)OCC(=O)c2cc(C)n(Cc3cccs3)c2C)c2ccccc2c1=O
?	Cc1cc(C)n(CCNC(=O)CC2C(=O)NCCN2Cc2ccc(C)o2)n1 (stereo not drawn)
-2%	Cc1ccc(C(=O)N2CCN(Cc3ccc4c(c3)OCO4)CC2)cc1[N+](=O)[O-]
-12%	O=S(=O)(O)c1cccc2c(N=Nc3ccc(O)c4ncccc34)cccc12
3%	CCOc1ccc(CNC(=O)Cn2ccc3cc(S(=O)(=O)N4CCCCC4)ccc32)cc1
4%	CC(C)Sc1nnc(SCC(=O)NCCCN2CCCC2=O)s1
0%	Cc1ccc2c(c1)-c1nc(-c3ccccc3)cc(-c3ccccc3)c1CO2
-3%	Cc1cc2[nH]c(=O)c(=O)[nH]c2cc1S(=O)(=O)Nc1cccc(F)c1
14%	CCc1ccc(-c2cn3c(n2)SCC3)cc1
-18%	CS(=O)(=O)Nc1nnc(CCc2ccccc2)s1
-7%	O=C(O)c1ccc(Sc2nnc(-c3cccc(Br)c3)o2)c([N+](=O)[O-])c1
-12%	Cc1ccccc1Nc1nc(N)nc(COC(=O)c2cccc(S(=O)(=O)N(C)C)c2)n1
-6%	CCSc1oc(-c2ccco2)nc1S(=O)(=O)c1ccc(Br)cc1
15%	C=CCn1c(=S)[nH]c2sccc2c1=O
1%	COc1cc2c(cc1OC)C(=S)NC(C)(C)C2
-11%	CSc1nnc(-c2ccccc2)n1C
-3%	O=C(CNCc1ccc(F)cc1)Nc1ccc(C(=O)N2CCCCC2)cc1
?	O=C(NCCc1ccccc1)c1ccc(CSc2nc3ccncc3n2Cc2ccccc2F)cc1
-14%	O=C(CSc1nnc(Cc2cccs2)n1C1CCCCC1)N1CCN(C(=O)c2ccco2)CC1
4%	C=CCOC(=O)C1=C(C)NC(=O)NC1c1ccc(OC(=O)c2ccco2)c(OC)c1 (stereo not drawn)
-10%	CC12CCC(C(=O)N3CCCc4ccccc43)(OC1=O)C2(C)C (stereo not drawn)
-5%	COc1cc2c(cc1OC)C(c1cccc(OC)c1OC)CC(=O)N2 (stereo not drawn)
4%	c1ccc(OCc2nnc(-c3ccccc3)o2)cc1
-9%	COc1ccccc1C(=O)NC(=O)COC(=O)c1ccc(Cl)nc1
-6%	CN(CC(=O)Nc1cccc(S(=O)(=O)N2CCCC2)c1)CC(=O)Nc1ccc(Cl)c(C(F)(F)F)c1
-14%	O=C(c1ccoc1)N1CCC2(CCCN(Cc3ccc(F)c(F)c3)C2)C1 (stereo not drawn)
18%	COc1ccc(CNc2nc3nc(C)cc(C)n3n2)cc1OC
3%	COc1cccc(CNC(=O)CCCCCn2c(=O)[nH]c3cc(OC)c(OC)cc3c2=O)c1
3%	CCN(Cc1ccccc1)Cc1cc(OC)cc(OC)c1
9%	Cc1cccc(C)c1NC(=O)CSCc1cccc(CSCC(=O)Nc2c(C)cccc2C)n1
4%	CCOc1ccc(-n2cc(-c3ccccc3)c3c(=O)[nH]cnc32)cc1
2%	CCN(CC(=O)Nc1ccccc1OC)C(=O)c1ccc(N(C)S(=O)(=O)c2ccc(C)cc2)cc1
-4%	COc1ccc(-n2cnc3cc(N)ccc32)cc1
-3%	CCOC(=O)c1c(N)sc2c1CCS(=O)(=O)C2
10%	CCN(CC)CC(=O)N(CC(=O)Nc1c(C)cc(C)cc1C)C1CCCCC1
-11%	CC(C)(C)OC(=O)NNC(=O)Nc1ccccc1C(F)(F)F
-2%	COc1ccc2nc(C)cc(N3CC(C)OC(C)C3)c2c1 (stereo not drawn)
-2%	CC1CC(C)(C)CC2(C1)NC(=O)N(CC(=O)Nc1ccc3[nH]c(=O)[nH]c3c1)C2=O (stereo not drawn)
-8%	Cc1csc2nc(O)c(C(=O)NC3CCCCC3C)c(=O)n12 (stereo not drawn)
0%	Cc1ccc(OCC(=O)N[C@@H](C)c2nnc3ccccn23)cc1C
21%	COc1ccc(Cl)cc1NC(=O)CCn1c(=O)c2cccn2c2ccccc21
3%	COc1cccc(NC(=O)CSC2=C(C#N)C(c3ccco3)C3=C(CCCC3=O)N2)c1 (stereo not drawn)
-9%	Cc1nc(CC(=O)N2CCN(c3cccc(C)c3C)CC2)cs1
-1%	O=C(c1ccco1)n1nc(-c2cccnc2)nc1NCc1ccco1

# Compounds shown so far that have a nitro group on carbon, in the order listed:
VDR inh	structure
-2%	Cc1ccc(C(=O)N2CCN(Cc3ccc4c(c3)OCO4)CC2)cc1[N+](=O)[O-]
-7%	O=C(O)c1ccc(Sc2nnc(-c3cccc(Br)c3)o2)c([N+](=O)[O-])c1

# Continuation.
VDR inh	structure
-10%	N#Cc1c(NC(=O)CSc2nc(N)cc(=O)[nH]2)sc2c1CCCC2
25%	NC(=O)CSc1nnc(-c2cccs2)n1-c1ccccc1
-11%	COc1ccc(-c2csc3ncnc(N4CCN(C(=O)c5ccco5)CC4)c23)cc1
-10%	C=CCN(CC=C)S(=O)(=O)c1ncn[nH]1
4%	CC1=NN(C(=O)c2ccc(C)cc2)C(O)(C(F)(F)OC(F)(F)F)C1 (stereo not drawn)
-5%	COc1cccc(/C=N/NC(=O)c2c(C)nc3ccc(Cl)cn23)c1OC
-3%	CCOc1ccccc1CNC(=O)CCc1c(C)nn(-c2ccc(N3CCOCC3)nn2)c1C
-26%	COC(=O)[C@@H](NCc1ccc(B(O)O)cc1)C(C)C
-15%	CCOC(=O)c1c(C)[nH]c(C)c1C(=O)CSc1nc2ccccc2c(=O)n1-c1ccc(CC)cc1
6%	Cc1ccc(C)c(S(=O)(=O)c2nnn3c2nc(Nc2ccc(F)c(Cl)c2)c2sccc23)c1
4%	C/C(=N\NC(=O)c1c[nH]c2ccccc12)c1ccco1
-18%	COc1cc(C(=O)Nc2ccc3oc(-c4ccc(C)c(Br)c4)nc3c2)cc(OC)c1OC
4%	COc1ccc(CCNC(=O)C/C(C)=N/NC(=O)c2ccc(Cl)cc2Cl)cc1OC
25%	COc1ccccc1/C=C1\SC(=S)N(CCC(=O)Nc2nnc(C)s2)C1=O
-4%	CC(=C/c1ccccc1)/C=N/n1c(-c2ccco2)n[nH]c1=S
4%	Cc1cc(C)cc(NC(=O)C(NCC2CCCO2)c2ccccc2)c1 (stereo not drawn)
8%	c1ccc(CN(CCN2CCOCC2)Cc2ccccc2)cc1
-6%	FC(F)(F)c1cccc(Cc2noc(CN3C[C@@H]4CCC[C@H]3C4)n2)c1
15%	CC(C)(C)OC(=O)CN1C(=O)NC(Cc2c[nH]c3ccccc23)C1=O (stereo not drawn)
-1%	O=C(c1ccco1)N1CCN(Cc2cccc([N+](=O)[O-])c2)CC1
-4%	CC(C)(C)c1ccc(C(=O)Nc2ccccc2C(=O)NCCN2CCOCC2)cc1
-5%	CN(CC(=O)NCc1ccncc1)S(=O)(=O)c1ccc2ccccc2c1
-16%	Nc1ccc2c(C(F)(F)F)cc(=O)oc2c1
6%	COc1ccc(CCNC(=O)C2CCC(=O)N(CCc3ccc(OC)cc3)C2)cc1 (stereo not drawn)
-16%	Cc1nn(-c2ccccc2)c(C)c1/C=N/n1c(-c2ccccc2Br)n[nH]c1=S
-7%	CC1CCCCC1NC(=O)C1CCN(S(=O)(=O)N2CCOCC2)CC1 (stereo not drawn)
3%	O=C(COC(=O)C1CCN(c2ccc(C(F)(F)F)cn2)CC1)c1ccc(F)cc1
-5%	Nc1nc(Cl)cc(Oc2ccccc2F)n1
0%	COc1ccc(NC(=O)C2C3C=CC4(O3)C2C(=O)N(CCCN2CCCCC2)C4C(=O)NC2CCCC(C)C2C)cc1 (stereo not drawn)
13%	Cc1cc(NC(=O)COC(=O)C2CCN(S(=O)(=O)c3ccc(Cl)cc3)CC2)no1
-17%	COc1ccc(C2C(C(=O)Nc3ccc(C)cc3C)=C(C)Nc3nc4ccccc4n32)c(OC)c1 (stereo not drawn)
-7%	CCOC(=O)c1cnc2ccc(C)cc2c1OCc1cc(F)cc(F)c1
-21%	CC1CCC(C(=O)NC(C(=O)OCC(=O)c2ccccc2)C(C)C)CC1 (stereo not drawn)
12%	CCOC(=O)c1cn(-c2ccccc2CO)c2c(F)c(F)c(F)cc2c1=O
-14%	COc1ccc(Br)cc1S(=O)(=O)Nc1ccc(Cl)cn1
3%	COc1ccccc1-c1cn(-c2ccccc2)c(=S)[nH]1
79µM*	COc1cc2c(cc1OC)CN(C(=O)c1cccc([N+](=O)[O-])c1)CC2
-12%	Cc1cc(C)c(NC(=O)CN2CCCCCC2)c(C)c1
8%	CCCOc1ccc(C2c3c(oc4ccc(F)cc4c3=O)C(=O)N2CCc2ccc(OC)cc2)cc1 (stereo not drawn)
-17%	CC(C[N+](C)(C)C)OC(=O)C1(c2ccccc2)CCCC1 (stereo not drawn)
-3%	O=C(COC(=O)COc1ccc(Nc2ccccc2)cc1)NCc1ccco1
10%	CCOc1ccc(NC(=O)C(=O)NCC(c2cccnc2)N2CCc3ccccc32)cc1 (stereo not drawn)
2%	CCOc1ccc(C2Oc3nc(SC)nnc3-c3ccccc3N2C(C)=O)cc1OC (stereo not drawn)
-3%	Cc1ccc(N2C(=O)CC2(C#N)c2ccc(OCc3ccccc3)cc2)cc1 (stereo not drawn)
-14%	Nc1nc(Cl)cc(=O)n1Cc1ccc(Cl)cc1
?	O=C(c1cc(Br)ccc1O)N(Cc1ccco1)Cc1cccs1
11%	C=CCOc1c2ccc(C(=O)NCCc3ccc(C)cc3)cc2nn1C
-4%	O=C(Cc1ccc(Br)cc1)NC1CCCc2ccccc21 (stereo not drawn)
103%[activator]	COc1ccccc1N(C)S(=O)(=O)c1ccc(C(=O)NC2CCCCCC2)cc1
6%	COc1cccc(NC(=O)c2oc3ccccc3c2NC(=O)c2ccc(OC(C)C)cc2)c1

# Following part:
VDR inh	structure
-22%	Cc1noc(C)c1-c1cc(NC2CC2)ncn1
-13%	CC1=C(C(=O)Nc2ccc(C)cc2C)C(c2ccc(C(=O)O)cc2)n2nc(SCc3ccccc3)nc2N1 (stereo not drawn)
15%	N#CC1=C2N=C(N)c3c(sc4c3CCCCC4)N2C2=C(C(=O)CCC2)C1c1ccccc1 (stereo not drawn)
4%	COC(=O)c1sc(SC)c(S(=O)(=O)C(C)C)c1N/N=C(\C#N)S(=O)(=O)c1ccccn1
-3%	CCOC(=O)N1CCN(C(=O)c2ccc(C)c(S(=O)(=O)Nc3cccc(C)c3C)c2)CC1
2%	NC(=O)c1ccc(-c2ccc(Br)cc2)o1
-18%	Cc1ccc(CNC(=O)CCC2CCCN(Cc3c(C)nn(C(C)C)c3C)C2)o1 (stereo not drawn)
-11%	O=C(c1ccccc1)N1CCN(C(=O)c2ccccc2)c2ccccc21
4%	Cn1c(N)c(C(=O)COC(=O)CNC(=O)c2ccccc2F)c(=O)n(C)c1=O
20%	Cc1ccnc(NS(=O)(=O)c2ccc(NS(=O)(=O)c3ccccc3)cc2)n1
5%	O=S(=O)(c1cccc2nsnc12)N1CCCC1
-7%	CCOc1ccc(N(CC(=O)N2CCOCC2)S(=O)(=O)c2ccc(F)cc2)cc1
9%	CC(C)Cc1nnc(NC(=O)CCNC(=O)c2ccco2)s1
-15%	COc1ccc2c(=O)c3c(=O)n(Cc4ccco4)c(-c4ccco4)nc3oc2c1
-12%	CN1CCN(C(=O)/C(=C\c2cccs2)NC(=O)c2ccco2)CC1
1%	CCCCC(CCCC)=N/N=C/c1c(O)n(CC)c2cc(C3=NNC(=O)CC3)ccc12
3%	CN(C)S(=O)(=O)n1cc(/C=C(\NC(=O)c2ccccc2F)C(=O)NCCCN2CCOCC2)c2ccccc21
-15%	COc1ccc(N2CCN(C(=O)c3cc(=O)c4cc(C)cc(C)c4o3)CC2)cc1
-4%	CCCn1c(SCC(=O)NC2CCCC2)nc2c1c(=O)n(C)c(=O)n2C
-19%	COc1ccccc1CCNC(=O)C1CCC(=O)N(Cc2cccc(F)c2)C1 (stereo not drawn)
-18%	NC(=O)C1=C[C@@H](C2CCCCC2)C[C@@H](OCc2ccc(CO)cc2)O1
-1%	COc1ccc(CCNC(=O)CN(c2ccccc2)S(C)(=O)=O)cc1OC
-5%	CN(CC(=O)Nc1ccccc1Oc1ccccc1)Cc1ccccc1F
-8%	O=C(Nc1cc(Cl)ccc1N1CCCC1)C1=NN(c2ccccc2)C(=O)CC1
11%	O=C(O)CCn1c(=O)c2ccccc2c2ccccc2c1=O

# 4 successive records out of the list so far, for reference:
VDR inh	structure
-8%	COc1ccc(OC)c2sc(NC(=O)c3ccc(Br)s3)nc12
-3%	C=CCNc1sc(C(=O)c2ccc(C)cc2)c(N)c1C#N
4%	CCCCCCCCCCCCCCCC(=O)NC(C)C
-15%	COc1ccc2cc(S(=O)(=O)NCc3cccnc3)ccc2c1

# Next section
VDR inh	structure
-4%	O/N=C(/c1ccc(Cl)cc1)C1CC1c1ccccc1 (stereo not drawn)
6%	CC(=O)C[C@H](O)CC(=O)[C@@H]1OC(=O)CCCCCc2ccccc21
6%	O=C(N1CCOCC1)N1CCN(S(=O)(=O)N2CCCCC2)CC1
-11%	Cc1oc(-c2ccccc2F)nc1CSCC(=O)NCc1ccc2c(c1)OCO2
12%	CN1CCN(c2ccc(NC(=O)COc3ccccc3Cl)cc2)CC1

# As entered above:
# In VDR inh, `Cc1oc(-c2ccccc2F)nc1CSCC(=O)NCc1ccc2c(c1)OCO2` shows -11%
# In VDR inh, `CC(=O)C[C@H](O)CC(=O)[C@@H]1OC(=O)CCCCCc2ccccc21` shows 6%
